Assay outcomes as filed in PubChem.
CHRM4 antagonist: antagonists of human muscarinic M4 receptor (CHRM4); AID 624125; 0.73% of 360,000 active; CHO-hM4 cells, ACh EC80, Fluo-8 calcium fluorescence; P08173; inhibition, % at 3 µM;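 active means inhibition above its plate's cutoff, the mean inhibition of sample wells plus 3 SD, cut at about 27% in these data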;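 further: 0% = acetylcholine EC80 with DMSO and 100% = DMSO without agonist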
Target sequence (P08173 whole entry, looked up): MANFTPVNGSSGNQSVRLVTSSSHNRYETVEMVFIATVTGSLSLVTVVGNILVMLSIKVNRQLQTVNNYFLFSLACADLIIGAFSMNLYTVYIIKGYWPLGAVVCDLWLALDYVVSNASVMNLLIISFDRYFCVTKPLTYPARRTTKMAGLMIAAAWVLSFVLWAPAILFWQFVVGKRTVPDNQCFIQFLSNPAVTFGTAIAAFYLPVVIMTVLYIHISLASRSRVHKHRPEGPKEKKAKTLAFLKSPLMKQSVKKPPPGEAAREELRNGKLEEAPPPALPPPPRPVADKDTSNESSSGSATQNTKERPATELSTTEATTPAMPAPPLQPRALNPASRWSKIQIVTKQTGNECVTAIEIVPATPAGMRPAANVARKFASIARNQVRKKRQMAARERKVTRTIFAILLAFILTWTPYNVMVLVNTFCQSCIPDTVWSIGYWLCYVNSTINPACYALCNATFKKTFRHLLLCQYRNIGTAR
CHRM4 PAM: potentiates acetylcholine response at human M4 receptor. CHO-K1 hM4/Gqi5, Fluo-8 calcium fluorescence, ACh EC20; 0% = ACh EC20, 100% = maximal ACh. activation, % at 3 µM. 0.4% of 360,000 active. AID 624126;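 active means activation above its plate's cutoff, the mean activation of sample wells plus 3 SD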; further: some results filed as inactive read as strong as hits
CHRM5 PAM: potentiates acetylcholine response at human M5 receptor; P08912; CHO-K1 hM5, Fluo-8 calcium, ACh EC20 PAM; 0% = ACh EC20, 100% = ACh EC100; activation, % at 3 µM; 0.3% of 360,000 active;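 active means activation above the run cutoff, the mean activation of all test compounds plus 3 SD, cut at about 18% in these data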
Target sequence (P08912 whole entry, looked up): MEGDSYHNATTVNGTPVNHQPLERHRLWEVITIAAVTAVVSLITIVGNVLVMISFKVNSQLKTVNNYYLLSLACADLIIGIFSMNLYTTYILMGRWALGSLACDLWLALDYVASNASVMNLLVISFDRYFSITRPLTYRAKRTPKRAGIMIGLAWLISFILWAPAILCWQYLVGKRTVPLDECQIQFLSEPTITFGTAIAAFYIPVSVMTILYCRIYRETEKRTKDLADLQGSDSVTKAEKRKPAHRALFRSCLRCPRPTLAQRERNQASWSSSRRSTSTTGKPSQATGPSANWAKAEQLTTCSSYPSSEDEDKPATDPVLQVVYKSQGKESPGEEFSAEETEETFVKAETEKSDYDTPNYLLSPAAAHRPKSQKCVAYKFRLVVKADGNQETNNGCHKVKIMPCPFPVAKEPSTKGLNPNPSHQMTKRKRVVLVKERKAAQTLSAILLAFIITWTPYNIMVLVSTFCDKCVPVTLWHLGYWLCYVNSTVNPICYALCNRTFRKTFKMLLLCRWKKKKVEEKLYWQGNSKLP
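System: CHO-K1 hM5 cells. Reagent: acetylcholine, EC20 level. Compound dosing: single dose, 3 µM nominal final test concentration. Timing: Post-acetylcholine fluorescence recording 140 s. Detection: Fluo-8 calcium fluorescence. Read-out: % activation, ACh-normalized. Benchmarks: ACh EC20 and EC100 wells. Repeats: singlicate, one well per test compound.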
M5 antag: blocks acetylcholine activation of human M5 receptor | P08912 | 0.59% of 360,000 active | inhibition, % at 3 µM | AID 624040 | CHO-hM5 cells, Fluo-8 calcium fluorescence, ACh EC80;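 active means inhibition above a per-plate cutoff, the mean of that plate's test compounds plus 3 SD, cut at about 27% in these data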;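 further: 0% = acetylcholine EC80 with DMSO and 100% = DMSO without agonist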
M5 ag: agonists of human muscarinic M5 receptor (CHRM5) | P08912 | CHO-K1 hM5 cells, Fluo-8 calcium fluorescence; 0% DMSO wells, 100% maximal acetylcholine response | 0.19% of 360,000 active | activation, % at 3 µM;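 active means activation above the run's mean over test compounds plus 3 SD, cut at about 23% in these data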;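 further: signal is peak over basal fluorescence ratio across the kinetic read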
An asterisk follows results filed as active; & = joins results of further samples. Some of the compounds tested; rates above refer to the full screens.

Below each SMILES – CHRM4 antagonist | CHRM4 PAM | CHRM5 PAM | M5 antag | M5 ag
1: Nc1ccc(S(N)(=O)=O)cc1
    3 | -5 | -3 | -2 | 0
2: O=C1NC(=O)C(c2ccccc2)(c2ccccc2)N1
    8&-10 | -3&3 | 3&0 | 1&6 | 0&0
3: CC(C)(C)NC[C@@H](O)COc1cccc2c1CCCC2=O
    -3 | -1 | -4 | 6 | 0
4: CCOC(=O)[C@H](CCc1ccccc1)N[C@@H](C)C(=O)N1CCC[C@@H]1C(=O)O
    1 | -3 | 1 | -11 | 1
5: CC(CCc1ccccc1)NCC(O)c1ccc(O)c(C(N)=O)c1 (configuration not stated)
    -23 | 7 | 4 | 3 | -1
6: CCCSc1ccc2nc(NC(=O)OC)[nH]c2c1
    -7 | 4 | 3 | -3 | 2
7: CCCNCC(O)COc1ccccc1C(=O)CCc1ccccc1 (configuration not stated)
    -1 | -3 | -7 | 8 | 1
8: O=c1cnn([C@@H]2O[C@H](CO)[C@@H](O)[C@H]2O)c(=O)[nH]1
    0 | -1 | 1 | -8 | 0
9: c1ccc(CN2CCC3CC2c2cc(N4CCOCC4)ccc23)cc1 (configuration not stated)
    -6 | 2 | 2 | -4 | -2
10: O=c1ccc2ccccc2o1
    -9 | 2 | -4 | -5 | 0
11: O=c1[nH]cnc2[nH]ncc12
    -16 | 0 | 4 | -10 | 0
12: COc1ccc(S(=O)(=O)n2c(C)nc3ccccc32)cc1C
    3 | 0 | 0 | -5 | -3
13: CN(C)CCOc1ccc(/C(=C(/CCCl)c2ccccc2)c2ccccc2)cc1
    -2 | 9 | 2 | -1 | 1
14: CCCN(CCC)S(=O)(=O)c1ccc(C(=O)O)cc1
    8 | -10 | -10 | 5 | 4
15: CNNCc1ccc(C(=O)NC(C)C)cc1
    -16 | -3 | -2 | 1 | 0
16: Cc1cn[nH]c1
    0 | -4 | 3 | 4 | 0
17: CC(C)(Oc1ccc(C2CC2(Cl)Cl)cc1)C(=O)O (configuration not stated)
    -4 | 3 | 3 | -1 | 1
18: NC(=O)c1cnccn1
    1 | 1 | -3 | 2 | 0
19: O=C1NC[C@H](c2ccccc2)OC(=O)[C@@H](Cc2ccc(F)cc2)CC/C=C/C[C@@H]1CC(=O)N(CCO)Cc1ccccc1
    7 | -6 | -23 | 13 | -2
20: Oc1ccccc1O
    -12 | -2 | -3 | -1 | 3
21: Cc1cn([C@H]2C=C[C@@H](CO)O2)c(=O)[nH]c1=O
    -1&5 | -1&6 | -3&3 | 6&-3 | 0&4
22: CC(=O)N1CCN(c2ccc(OC[C@H]3CO[C@](Cn4ccnc4)(c4ccc(Cl)cc4Cl)O3)cc2)CC1
    5 | -10 | -8 | 2 | 4
23: Cc1ccc(Cl)c(Nc2ccccc2C(=O)O)c1Cl
    5&11 | -7&-7 | -8&1 | 7&-5 | -1&-1
24: CN(C(=O)CN(CCO)CC(=O)N(C)C(C)(C)Cc1ccccc1)C(C)(C)Cc1ccccc1
    28* | -15 | -18 | 26 | 40*
25: CC(C)NC[C@H](O)COc1ccc(CC(N)=O)cc1
    3 | -4 | 1 | 4 | 1
26: O=S(=O)(O)CCS
    -5 | 1 | -6 | 3 | 1
27: CC(C)NCC(O)COc1ccc(CC(N)=O)cc1 (configuration not stated)
    2 | 1 | 9 | 1 | 0
28: C[C@]12C=CC(=O)C=C1CC[C@@H]1[C@@H]2[C@@H](O)C[C@@]2(C)[C@H]1CC[C@]2(O)C(=O)CO
    -1 | -3 | -2 | 3 | 4
29: S=c1nc[nH]c2nc[nH]c12
    -9&-19 | 1&4 | 3&2 | -5&-2 | 1&0
30: Cc1cc(C(C)(C)C)c(O)c(C)c1CC1=NCCN1
    -4 | -8 | -14 | 3 | -1
31: CC1(C)O[C@@H]2C[C@H]3[C@@H]4CCC5=CC(=O)CC[C@]5(C)[C@@]4(F)[C@@H](O)C[C@]3(C)[C@]2(C(=O)CCl)O1
    -2 | -6 | -3 | -5 | 0
32: COC(=O)CCc1ccc(OCC(O)CNC(C)C)cc1 (configuration not stated)
    -5 | -1 | -5 | 0 | 0
33: O=C(Cn1c(C(=O)c2ccccc2)nc2ccccc21)c1ccc(Cl)cc1
    -19 | 7 | 14 | -5 | 4
34: Cc1ccc(-c2cc(C(F)(F)F)nn2-c2ccc(S(N)(=O)=O)cc2)cc1
    -6 | 0 | -9 | -1 | 0
35: Nc1nc2c(ncn2COC(CO)CO)c(=O)[nH]1
    4 | -1 | -1 | 3 | 2
36: O=C(O)CCCCC1CCSS1 (configuration not stated)
    -19 | 5 | -3 | -2 | 0
37: O=C1C(CCS(=O)c2ccccc2)C(=O)N(c2ccccc2)N1c1ccccc1 (configuration not stated)
    -6 | 3 | 1 | 1 | 1
38: O=C1NN(c2ccccc2)C(=O)/C1=C/c1ccc(Sc2ccc(Cl)cc2)o1
    -3 | 3 | 17 | -13 | 1
39: Nc1[nH]c(=O)ncc1F
    -2 | -7 | 7 | -5 | 3
40: C#C[C@]1(O)CCC2C3CCC4=CC(=O)CC[C@@H]4C3CC[C@@]21C (some centres not stated)
    -3 | -6 | -3 | 6 | 4
41: CCCCOc1cc(CC2CNC(=O)N2)ccc1OC (configuration not stated)
    6 | -4 | 3 | -9 | 0
42: CC(C)NC[C@@H](O)c1ccc(O)c(O)c1
    -7 | 7 | 1 | -14 | 1
43: O=C(N/N=C\c1ccc(Sc2ccccn2)o1)c1cccc(F)c1
    3 | 14 | -3 | -2 | -3
44: Nc1nc(F)nc2c1ncn2[C@@H]1O[C@H](CO)[C@@H](O)[C@H]1O
    -3 | 1 | 0 | 3 | 0
45: CC1(C)S[C@@H]2[C@H](NC(=O)[C@H](N)c3ccc(O)cc3)C(=O)N2[C@H]1C(=O)O
    8 | -6 | -6 | 7 | 0
46: O=c1[nH]c(=O)n(C2CC(O)C(CO)O2)cc1I (configuration not stated)
    -5 | -1 | 1 | -3 | 1
47: C[C@H]1O[C@H]1P(=O)(O)O
    -2 | 5 | 2 | 1 | 1
48: COC(=O)[C@H]1[C@H]2C[C@@H]3c4[nH]c5cc(OC)ccc5c4CCN3C[C@H]2C[C@@H](OC(=O)c2cc(OC)c(OC)c(OC)c2)[C@@H]1OC
    -5 | -5 | 0 | -2 | 2
49: COCCOC(=O)C1=C(C)NC(C)=C(C(=O)OC(C)C)C1c1cccc([N+](=O)[O-])c1 (configuration not stated)
    2 | 6 | -7 | 11 | -1
50: Nc1ccc(S(=O)(=O)NC(=O)c2ccccc2)cc1
    10 | -6 | 2 | 2 | 0
51: COc1cc(/C=C2/SC(=S)N(Cc3ccccc3)C2=O)cc(OC)c1O
    34* | -12 | 0 | 24 | 24*
52: C=C(C)C1(O)OC(=O)C=C1OC (configuration not stated)
    -27 | 12 | -2 | -6 | 1
53: CCC1(c2ccccc2)C(=O)NCNC1=O
    3 | -6 | -4 | 4 | -1
54: CCn1cc(C(=O)O)c(=O)c2cc(F)c(N3CCN(C)CC3)cc21
    -12 | 7 | -1 | 4 | -1
55: Cc1c(O)c(=O)ccn1C
    -4 | 2 | 5 | -1 | 1
56: CC(=O)SC1CC2=CC(=O)CCC2(C)C2CCC3(C)C(CCC34CCC(=O)O4)C12 (configuration not stated)
    2 | -1 | -4 | 0 | -4
57: c1ccc2[nH]c(-c3cscn3)nc2c1
    -8 | 5 | -4 | 5 | 0
58: CCC(C(=O)Nc1ccc(C(C)C)cc1)c1ccccc1 (configuration not stated)
    24 | -19 | -5 | 19 | 36*
59: O=C(c1ccc(OCCN2CCCCC2)cc1)c1c(-c2ccc(O)cc2)sc2cc(O)ccc12
    -5&-6 | -2&-6 | -6&-3 | 8&1 | 11&8
60: C[n+]1ccccc1/C=N/O
    -12&9 | 7&-9 | -2&-4 | 0&-3 | -1&-1

(further entries)
Below each SMILES – CHRM4 antagonist | CHRM4 PAM | CHRM5 PAM | M5 antag | M5 ag
61: C[C@@]12C(=O)OC(=O)[C@]1(C)C1CCC2O1
    -15 | 6 | 1 | -4 | 1
62: O=C1OCCN1/N=C/c1ccc([N+](=O)[O-])o1
    1 | -2 | -1 | -1 | 1
63: CC1CC2C(C(O)CC3(C)C2CCC3(O)C(=O)CO)C2(C)C=CC(=O)C=C12 (configuration not stated)
    -4 | 0 | -6 | 16 | -4
64: CCC[C@@H]1C[C@@H](C(=O)N[C@@H](C2O[C@H](SC)[C@H](O)[C@@H](O)[C@H]2O)[C@H](C)Cl)N(C)C1 (some centres not stated)
    -5 | 3 | 1 | -2 | 1
65: CC(C)NC[C@H](O)COc1cccc2[nH]ccc12
    1 | -3 | -6 | 3 | 1
66: CC(C)Cn1cnc2c(N)nc3ccccc3c21
    -5 | 3 | -1 | 0 | 1
67: O=C1c2ccccc2C(=O)C1c1ccccc1
    -19 | 11 | -6 | -8 | 0
68: C#Cc1cccc(N2C(=O)C3C4C=CC(C3C2=O)C2C(=O)N(c3cccc(C#C)c3)C(=O)C42)c1 (configuration not stated)
    -2 | -2 | 0 | 11 | 1
69: C#C[C@]1(O)CC[C@H]2[C@@H]3CCc4cc(O)ccc4[C@H]3CC[C@@]21C
    1 | -9 | -9 | 3 | 12
70: CCC1=C(C)CN(C(=O)NCCc2ccc(S(=O)(=O)NC(=O)NC3CCC(C)CC3)cc2)C1=O (configuration not stated)
    14 | -10 | -6 | -6 | 1
71: Cc1onc(-c2ccccc2)c1C(=O)NNC(=S)NC(=O)c1ccc(F)cc1
    3 | -4 | -3 | -4 | 19
72: Cc1nn(C)cc1N1C(=O)c2cccc3c(N)ccc(c23)C1=O
    13 | -17 | -23 | 7 | 92*

A draw from above in order of heavy-atom count, smallest number first.
Below each SMILES – CHRM4 antagonist | CHRM4 PAM | CHRM5 PAM | M5 antag | M5 ag
16: Cc1cn[nH]c1
    0 | -4 | 3 | 4 | 0
26: O=S(=O)(O)CCS
    -5 | 1 | -6 | 3 | 1
47: C[C@H]1O[C@H]1P(=O)(O)O
    -2 | 5 | 2 | 1 | 1
18: NC(=O)c1cnccn1
    1 | 1 | -3 | 2 | 0
11: O=c1[nH]cnc2[nH]ncc12
    -16 | 0 | 4 | -10 | 0
15: CNNCc1ccc(C(=O)NC(C)C)cc1
    -16 | -3 | -2 | 1 | 0
8: O=c1cnn([C@@H]2O[C@H](CO)[C@@H](O)[C@H]2O)c(=O)[nH]1
    0 | -1 | 1 | -8 | 0
17: CC(C)(Oc1ccc(C2CC2(Cl)Cl)cc1)C(=O)O (configuration not stated)
    -4 | 3 | 3 | -1 | 1
30: Cc1cc(C(C)(C)C)c(O)c(C)c1CC1=NCCN1
    -4 | -8 | -14 | 3 | -1
44: Nc1nc(F)nc2c1ncn2[C@@H]1O[C@H](CO)[C@@H](O)[C@H]1O
    -3 | 1 | 0 | 3 | 0
32: COC(=O)CCc1ccc(OCC(O)CNC(C)C)cc1 (configuration not stated)
    -5 | -1 | -5 | 0 | 0
43: O=C(N/N=C\c1ccc(Sc2ccccn2)o1)c1cccc(F)c1
    3 | 14 | -3 | -2 | -3
9: c1ccc(CN2CCC3CC2c2cc(N4CCOCC4)ccc23)cc1 (configuration not stated)
    -6 | 2 | 2 | -4 | -2
28: C[C@]12C=CC(=O)C=C1CC[C@@H]1[C@@H]2[C@@H](O)C[C@@]2(C)[C@H]1CC[C@]2(O)C(=O)CO
    -1 | -3 | -2 | 3 | 4
4: CCOC(=O)[C@H](CCc1ccccc1)N[C@@H](C)C(=O)N1CCC[C@@H]1C(=O)O
    1 | -3 | 1 | -11 | 1
56: CC(=O)SC1CC2=CC(=O)CCC2(C)C2CCC3(C)C(CCC34CCC(=O)O4)C12 (configuration not stated)
    2 | -1 | -4 | 0 | -4
31: CC1(C)O[C@@H]2C[C@H]3[C@@H]4CCC5=CC(=O)CC[C@]5(C)[C@@]4(F)[C@@H](O)C[C@]3(C)[C@]2(C(=O)CCl)O1
    -2 | -6 | -3 | -5 | 0
68: C#Cc1cccc(N2C(=O)C3C4C=CC(C3C2=O)C2C(=O)N(c3cccc(C#C)c3)C(=O)C42)c1 (configuration not stated)
    -2 | -2 | 0 | 11 | 1
22: CC(=O)N1CCN(c2ccc(OC[C@H]3CO[C@](Cn4ccnc4)(c4ccc(Cl)cc4Cl)O3)cc2)CC1
    5 | -10 | -8 | 2 | 4
48: COC(=O)[C@H]1[C@H]2C[C@@H]3c4[nH]c5cc(OC)ccc5c4CCN3C[C@H]2C[C@@H](OC(=O)c2cc(OC)c(OC)c(OC)c2)[C@@H]1OC
    -5 | -5 | 0 | -2 | 2
